From PubChem
KCNQ2 pot: potentiators of rat KCNQ2 potassium channel | CHO-K1 KCNQ2, FluxOR thallium flux fluorescence; active compounds read high | B-score at 10 µM | 310,000 compounds, 0.54% hits | AID 2239, 2010;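 active means fluorescence ratio B-score at least 3 SD of library B-scores, with initial fluorescence B-score within 3 SD, cut at about 5.3 in these data; same plate scores as AID 2156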;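 further: B-score of peak minus minimum over baseline fluorescence ratio after K+ and Tl+ stimulus; positive B-score means potentiation of KCNQ2 with more thallium influx and brighter signal; only the inactives scoring about 0 or higher are listed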
Target sequence (O88943 whole entry, looked up): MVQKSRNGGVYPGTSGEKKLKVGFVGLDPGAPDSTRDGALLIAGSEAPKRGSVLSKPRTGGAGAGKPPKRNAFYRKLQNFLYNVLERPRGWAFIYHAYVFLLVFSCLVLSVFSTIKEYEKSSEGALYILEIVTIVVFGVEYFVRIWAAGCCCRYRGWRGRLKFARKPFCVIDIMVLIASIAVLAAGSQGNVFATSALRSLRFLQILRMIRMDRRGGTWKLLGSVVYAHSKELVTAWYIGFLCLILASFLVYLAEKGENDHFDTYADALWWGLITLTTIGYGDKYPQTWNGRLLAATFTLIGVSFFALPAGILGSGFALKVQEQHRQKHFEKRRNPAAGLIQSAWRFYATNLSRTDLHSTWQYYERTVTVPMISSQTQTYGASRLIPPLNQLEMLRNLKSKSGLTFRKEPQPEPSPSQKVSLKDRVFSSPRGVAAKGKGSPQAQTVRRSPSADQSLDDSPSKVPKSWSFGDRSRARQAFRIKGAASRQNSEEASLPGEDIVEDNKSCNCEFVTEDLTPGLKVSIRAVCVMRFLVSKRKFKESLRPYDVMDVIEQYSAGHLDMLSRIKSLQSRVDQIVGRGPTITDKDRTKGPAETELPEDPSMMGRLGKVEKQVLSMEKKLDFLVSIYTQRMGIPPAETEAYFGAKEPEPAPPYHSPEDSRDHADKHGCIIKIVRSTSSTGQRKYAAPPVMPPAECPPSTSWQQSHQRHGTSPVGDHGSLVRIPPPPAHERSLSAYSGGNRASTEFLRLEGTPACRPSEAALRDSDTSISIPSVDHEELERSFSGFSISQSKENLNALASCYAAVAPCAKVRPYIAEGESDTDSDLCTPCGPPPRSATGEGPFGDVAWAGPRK
KCNQ2 pot baseline: further read-out of KCNQ2 pot, marked with its call; B-score; compound at 10 µM; measured here: initial fluorescence intensity artifact check;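 brightness before thallium and not channel activity; 0 = typical well and far values either way flag optical interference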
An asterisk follows results filed as active. An excerpt, so the mix of outcomes need not match the whole.

For COc1ccc(OC)c(NC(=O)CN(c2ccc(C)cc2)S(=O)(=O)c2c(C)n[nH]c2C)c1 the results were KCNQ2 pot 1.4 and KCNQ2 pot baseline -1.4.
`COc1ccc(NC(=O)Nc2cccnc2)cc1` gave KCNQ2 pot 0.03 and KCNQ2 pot baseline 3.2.
`O=C1CNC(=O)/C1=C\N1CCN(C(c2ccccc2)c2ccccc2)CC1` gave KCNQ2 pot 0.03 and KCNQ2 pot baseline -0.04.
`COc1cccc(NC(=O)C(C)N2C(=O)c3ccccc3S2(=O)=O)c1` (stereo not given) gave KCNQ2 pot 0.9 and KCNQ2 pot baseline 0.13.
Screening COc1ccc(/C=N/Nc2nncc3ccccc23)c(OC)c1 returned KCNQ2 pot 0.73 and KCNQ2 pot baseline 2.7.
`C#CCNc1cc(C)nc2ncnn12` gave KCNQ2 pot 1.5 and KCNQ2 pot baseline 0.91.
`Cc1ccc(C2Nc3ccccc3NC3=C2C(=O)OC(C)C3)cc1` (stereo not given) gave KCNQ2 pot 0.78 and KCNQ2 pot baseline 0.47.
CC(C)Cc1nc(SCC(=O)N2CCCC2)c2c(=O)n(C)c(=O)n(C)c2n1 was read as KCNQ2 pot 6.5* and KCNQ2 pot baseline -0.22*.
O=C(COC(=O)c1nn(-c2ccccc2C(F)(F)F)cc1O)c1ccc(OC(F)F)cc1 was read as KCNQ2 pot 0.24 and KCNQ2 pot baseline 0.02.
For COc1ccc(-c2nn(-c3ccccc3)cc2/C=N/NC(=O)c2cccc(S(=O)(=O)Nc3ccccc3Cl)c2)cc1 the results were KCNQ2 pot 1.7 and KCNQ2 pot baseline -0.66.
COc1ccc(-c2cn3c(C)c(C(=O)N4CCN(c5ccc(F)cc5)CC4)sc3n2)cc1 was read as KCNQ2 pot 0.46 and KCNQ2 pot baseline 1.1.
For O=C(CN1CCN(S(=O)(=O)c2ccccc2)CC1)Nc1ccc2c(c1)CCC2 the results were KCNQ2 pot 0.12 and KCNQ2 pot baseline 1.8.
For CC1(C)Cc2c(sc(NC(=O)c3ccc(C(=O)c4ccccc4)cc3)c2C#N)C(C)(C)N1 the results were KCNQ2 pot 0.68 and KCNQ2 pot baseline 0.01.
Screening CCCNC(=O)NC(=O)COC(=O)CC(NC(N)=O)c1ccc(Cl)cc1 (stereo not given) returned KCNQ2 pot 0.46 and KCNQ2 pot baseline 0.89.
`CC1(C)OC(=O)C(=CNc2ccccc2F)C(=O)O1` gave KCNQ2 pot 0.39 and KCNQ2 pot baseline 0.84.
`CCCCCOC(=O)C1=C(C)NC(=O)NC1c1ccc(OC)cc1` (stereo not given) gave KCNQ2 pot 1.4 and KCNQ2 pot baseline -0.02.
For Cc1c(C(=O)OC2CCC(C)CC2)[nH]c2c1C(=O)CCC2 (stereo not given) the results were KCNQ2 pot 1.1 and KCNQ2 pot baseline -0.94.
COc1ccc(C2CC(=O)c3cnc(N4CCc5ccccc54)nc3C2)c(OC)c1 (stereo not given) was read as KCNQ2 pot 0.06 and KCNQ2 pot baseline -0.04.
Cc1cc(=O)oc2cc(OCC(=O)NCc3ccccn3)ccc12 was read as KCNQ2 pot 0.79 and KCNQ2 pot baseline -0.02.
Screening CC1(C)CC(N2CCCC2)=CC(=[N+]2CCCCC2)C1 returned KCNQ2 pot 0.32 and KCNQ2 pot baseline -2.4.
`Cn1cnnc1SCC(=O)N1N=C(c2ccc(Cl)cc2)CC1c1ccco1` (stereo not given) gave KCNQ2 pot 0.15 and KCNQ2 pot baseline -0.03.
O=C(O)Cn1cc(C(=S)N2CCOCC2)c2ccccc21 was read as KCNQ2 pot 2.1 and KCNQ2 pot baseline 1.5.
For CCCCNC(=O)c1cn(C)c2ccc(S(=O)(=O)N3CC(C)CC(C)C3)cc2c1=O (stereo not given) the results were KCNQ2 pot 0.06 and KCNQ2 pot baseline -0.06.
`O=C(CN1CCN(c2cccc(Cl)c2)CC1)c1ccc(O)cc1O` gave KCNQ2 pot 0.12 and KCNQ2 pot baseline 0.69.
Screening O=C1CSCC(=O)N1Cc1ccc(Cl)c(Cl)c1 returned KCNQ2 pot 0.05 and KCNQ2 pot baseline 0.76.
`CCOC(=O)c1nc(C)n(-c2cc(OC)c(Cl)cc2Cl)n1` gave KCNQ2 pot 1.9 and KCNQ2 pot baseline 1.5.
For Cc1nc(NCc2ccco2)[nH]c(=O)c1CCC(C)C the results were KCNQ2 pot 0.43 and KCNQ2 pot baseline 1.9.
For Cc1oc2cc3oc(=O)c(CC(=O)N[C@H](C(=O)N[C@@H](C(=O)O)c4ccccc4)C(C)C)c(C)c3cc2c1C the results were KCNQ2 pot 0.34 and KCNQ2 pot baseline 1.9.
Screening Nc1cc(C(=O)OCC(=O)N2CCOCC2)ccc1Cl returned KCNQ2 pot 1.6 and KCNQ2 pot baseline -0.49.
O=C(NC1CCCCC1)c1ccc(-n2cnnn2)cc1 was read as KCNQ2 pot 0.02 and KCNQ2 pot baseline -0.05.
`COCCOc1cc(NC(=O)CS(=O)(=O)CC(=O)N(C)C)c(Cl)cc1Cl` gave KCNQ2 pot 0.72 and KCNQ2 pot baseline -0.75.
For Cc1ccc(S(=O)(=O)N2CCOc3ccccc32)c(C)c1NS(C)(=O)=O the results were KCNQ2 pot 1.3 and KCNQ2 pot baseline -2.2.
Screening Cc1nn(CC(=O)NNC(=O)c2ccccc2F)c([N+](=O)[O-])c1Br returned KCNQ2 pot 1.1 and KCNQ2 pot baseline -0.71.
Screening C=CCNC(=O)C1CC2Cn3c(nc4cc5ccccc5cc43)C2N1C (stereo not given) returned KCNQ2 pot 1.3 and KCNQ2 pot baseline 0.91.
`O=C(NCCCn1ccnc1)c1ccccc1NS(=O)(=O)c1ccc(F)c(F)c1` gave KCNQ2 pot 0.48 and KCNQ2 pot baseline 0.8.
For O=C(OCC(=O)N1CCN(C(=O)c2ccco2)CC1)c1cccc(S(=O)(=O)N2CCc3ccccc32)c1 the results were KCNQ2 pot 1.8 and KCNQ2 pot baseline 0.04.
Screening O=C(COC(=O)CN1C(=O)C(=O)c2ccccc21)OCN1C(=O)c2ccccc2C1=O returned KCNQ2 pot 0.47 and KCNQ2 pot baseline -0.72.
`COCCNC(=O)Cn1ccc2cc(S(=O)(=O)N3CCCCC3)ccc21` gave KCNQ2 pot 0.35 and KCNQ2 pot baseline 0.15.
Screening N=c1sccn1CC(=O)Nc1ccc(S(=O)(=O)N2CCOCC2)cc1 returned KCNQ2 pot 1 and KCNQ2 pot baseline -0.04.
O=[N+]([O-])c1ccc(NC(=S)N2CCCC2)cc1 was read as KCNQ2 pot 0.99 and KCNQ2 pot baseline -0.99.
`CCCCCCOC(=O)Sc1nc2ccccc2o1` gave KCNQ2 pot 0.1 and KCNQ2 pot baseline 0.55.
`CC1CCN(Cc2cc(=O)oc3cc(O)c(Cl)cc23)CC1` gave KCNQ2 pot 0.02 and KCNQ2 pot baseline 1.6.
`CCOC(=O)CC1C(=O)NCCN1C(=O)c1cc2c(=O)n3ccccc3nc2s1` (stereo not given) gave KCNQ2 pot 1.9 and KCNQ2 pot baseline 1.6.
Screening CNC(=O)c1c(Cl)cnn1-c1ccc(F)cc1 returned KCNQ2 pot 0.12 and KCNQ2 pot baseline -0.45.
Screening O=C1/C(=C/c2ccccn2)SC(=S)N1NS(=O)(=O)c1ccccc1 returned KCNQ2 pot 1.4 and KCNQ2 pot baseline 1.9.
Screening COCCNC(=O)C(c1ccc(F)cc1)N(Cc1ccco1)C(=O)CCC(=O)Nc1ccccn1 (stereo not given) returned KCNQ2 pot 1.3 and KCNQ2 pot baseline 0.63.
For O=C(Nc1nnc(-c2ccccn2)o1)c1cccc(Cl)c1 the results were KCNQ2 pot 0.14 and KCNQ2 pot baseline 0.78.
Screening CCOc1ccccc1N1CCN(C(=O)c2cc(-c3cccnc3)nc3c(Cl)cccc23)CC1 returned KCNQ2 pot 0.68 and KCNQ2 pot baseline 0.1.
`O=C(NCc1nnc2n1CCCCC2)c1ccc(Cl)cc1Cl` gave KCNQ2 pot 0.03 and KCNQ2 pot baseline 1.1.
Screening Cn1c(=O)n(C)c2cc(S(=O)(=O)NCCOCCO)ccc21 returned KCNQ2 pot 1.4 and KCNQ2 pot baseline 0.01.
`Cc1oc2nc(SCC(=O)NCc3cccnc3)nc(N)c2c1C` gave KCNQ2 pot 0.04 and KCNQ2 pot baseline 0.65.
For CCOC(=O)c1c(NC(=O)CN2CCN(C(=O)c3ccco3)CC2)sc2c1CCCC2 the results were KCNQ2 pot 0.34 and KCNQ2 pot baseline 1.1.
`CC(C)c1cc(C(=O)N2CCCC(CCC(=O)N3CCN(c4ccccn4)CC3)C2)no1` (stereo not given) gave KCNQ2 pot 1.2 and KCNQ2 pot baseline 2.4.
Screening CCOC(=O)C1CCN(S(=O)(=O)c2ccccc2)CC1 returned KCNQ2 pot 0.06 and KCNQ2 pot baseline 0.71.
Screening O=C(O)CCSc1nnc(-c2ccccc2)n1-c1ccccc1 returned KCNQ2 pot 0.67 and KCNQ2 pot baseline -0.01.
For CCOc1ccc(NC(=O)CSc2nnc(CNC(=O)c3ccco3)o2)cc1 the results were KCNQ2 pot 1.2 and KCNQ2 pot baseline -0.68.
Screening COc1ccc2ccccc2c1/C=N/O returned KCNQ2 pot 2.4 and KCNQ2 pot baseline -0.37.
Screening COCCCn1c(SCC(=O)N2CCc3ccccc32)nnc1-c1ccco1 returned KCNQ2 pot 0.76 and KCNQ2 pot baseline -0.84.
Screening CCOc1c(C)cc(-c2ncccc2O)cc1C returned KCNQ2 pot 0.05.
Screening CCC(=O)c1ccccc1OCCCn1cncn1 returned KCNQ2 pot 0.02 and KCNQ2 pot baseline 0.08.
Screening CSc1nc(NC(C)(C)C)nc(Oc2ccc(=O)[nH]n2)n1 returned KCNQ2 pot 1.3 and KCNQ2 pot baseline -0.22.
Screening O=C(CSc1ccccn1)Nc1nc2ccccc2s1 returned KCNQ2 pot 0.37 and KCNQ2 pot baseline 0.36.
For Cc1nc2c(o1)CCc1ccccc1C2O (stereo not given) the results were KCNQ2 pot 0.47 and KCNQ2 pot baseline -1.2.
CCOc1ccccc1NC(=S)NCc1cccn1C was read as KCNQ2 pot 1.7 and KCNQ2 pot baseline -0.49.
Screening CN(NC1OC(=O)c2ccccc21)c1c([N+](=O)[O-])cc(C(F)(F)F)cc1[N+](=O)[O-] (stereo not given) returned KCNQ2 pot 1.5 and KCNQ2 pot baseline -0.14.
For CCCC[C@@H]1CNC(=S)N1CCCc1cc(OC)c(OC)c(OC)c1 the results were KCNQ2 pot 2.1 and KCNQ2 pot baseline 0.66.
`O=C(CN1C(=O)c2ccccc2S1(=O)=O)Nc1ncccn1` gave KCNQ2 pot 0.95 and KCNQ2 pot baseline -0.46.
For COc1ccc(N/N=C(\C#N)C(=N)SCc2ccccc2)cc1 the results were KCNQ2 pot 0.18 and KCNQ2 pot baseline -0.2.
`CCN(CC)c1ccc(-n2c(C)c(C(C)=O)c(C(C)=O)c2C)cc1` gave KCNQ2 pot 0.27 and KCNQ2 pot baseline -0.87.
O=C1c2cnc3ncnn3c2CC2c3ccccc3CCN12 (stereo not given) was read as KCNQ2 pot 0.78 and KCNQ2 pot baseline 2.7.
`Cc1ccc(OCC(=O)NC2CCCCCC2)cc1C` gave KCNQ2 pot 6.5* and KCNQ2 pot baseline 1.2*.
Screening O=C(CCN1C(=O)/C(=C/c2ccc3c(c2)OCO3)SC1=S)Nc1ccccc1 returned KCNQ2 pot 0.11 and KCNQ2 pot baseline -0.61.
`CCOc1ccc(Cl)cc1CSc1n[nH]c(CC)n1` gave KCNQ2 pot 0.14 and KCNQ2 pot baseline -2.1.
CC(C)Oc1ccc(CCNC(=O)C2CCC(=O)N(C3CCCCCC3)C2)cc1 (stereo not given) was read as KCNQ2 pot 0.29 and KCNQ2 pot baseline -0.12.
COc1ccccc1NS(=O)(=O)c1cc(NC(=O)Nc2ccc(Cl)cc2Cl)ccc1N1CCCCC1 was read as KCNQ2 pot 0.86 and KCNQ2 pot baseline 0.04.
For C=CCOc1c(Br)cc(CNc2ccc(NC(=O)C(C)C)c(OC)c2)cc1OC the results were KCNQ2 pot 4.4 and KCNQ2 pot baseline 1.9.
For COc1ccc(N/N=C(/C#N)S(=O)(=O)C(C)(C)C)cc1 the results were KCNQ2 pot 0.42 and KCNQ2 pot baseline -1.8.
For Cc1cc(C)cc(NC(=S)NCC2CCCO2)c1 (stereo not given) the results were KCNQ2 pot 1.1 and KCNQ2 pot baseline 0.41.
